# Autofluor counter: counter-screen for toxin protease inhibitors: compound fluorescence; compound autofluorescence counterscreen, microsphere flow cytometry; active compounds read high; fluorescence intensity (no concentration beside the values); actives 3.1% (n = 360,000);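 active = at least 3 SD above the mean of all compounds, about 16000 in these data; inconclusive = too few beads counted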;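 also: 100 nL of 1 mM stock went into each well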
# Mtb hypoxia inh: PubChem AID 1159583 | fluorescence inhibition, % (concentration not given with the values) | actives 0.1% (n = 300,000) | M. tuberculosis hypoxia-regulated fluorescent reporter, fluorescence;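 active = 35 to 45% if threefold the growth effect, above 45% if 1.5-fold the growth effect; inactive = the rest, general growth blockers included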;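 also: wells of about 50 µL received 100 nL stock; 0% = vehicle wells and 100% = reference inhibitor wells; whole bacteria with a GFP reporter of the hypoxia response; strong numbers were not always called active; many hits fall short of the cut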
# Sa RN4220 lethal: growth inhibition of S. aureus RN4220, primary screen, OD600; actives 0.33% (n = 330,000); inhibition, % (test concentration not listed); 16 h;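 active = z-score of -3 or lower and OD600 up to 0.18 on both plates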;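 also: plate controls were untreated cells for no effect and reference antibiotic for full effect; stock transfer was 100 nL into about 80 µL; one replicate is shown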
# BJeLR lethal: MLPCN primary cell-based screen for lethality selective to Ras in HRASV12 cells. BJeLR (HRASV12) viability, CellTiter-Glo ATP luminescence, 48 h; reference of the scale not given here. AID 1554, 2009. actives 0.17% (n = 300,000). inhibition, % (test concentration not listed);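 active = replicate mean above 50%; inconclusive = above 50% but judged a plate artefact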;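 also: 50 nL library stock added to about 25 µL; numbers are from one replicate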
# Sa ugtP lethal: growth inhibition of ugtP-null S. aureus, primary screen, RN4220 ugtP deletion, OD600. growth inhibition, % (no concentration beside the values). actives 0.54% (n = 330,000). 16 h; some inactives read as strong as hits. AID 1259309, 2017;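 active = z-score under -3 and OD600 up to 0.15 on both plates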;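 also: plate controls were untreated wells for no effect and antibiotic for full effect; wells of about 80 µL received 100 nL stock; the first replicate is given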
# PrP 5UTR inh: inhibition of PrP 5' UTR reporter expression. cell-based PrP 5' UTR mRNA reporter, plate reader. inhibition, % (test concentration not listed). actives 0.35% (n = 340,000). AID 488862, 2010;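 active = every replicate at 50% or more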;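 also: 0 = median of the neutral control wells; tested in H4 reporter cells; numbers are from one replicate; inactives centre near -14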
# Mtb hypoxia inh growth: second read-out of Mtb hypoxia inh, no call of its own (marks repeat the call); growth inhibition, %; measured here: M. tuberculosis growth (absorbance);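 0% = vehicle and 100% = reference antibiotic; read after six days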
# An asterisk follows results filed as active; ? = inconclusive; · = not tested or not shown.
nr	mol	Autofluor counter	Mtb hypoxia inh	Mtb hypoxia inh growth	Sa RN4220 lethal
1	Cc1ccc(Cn2nc(C)c(C(=O)NCC(c3cccs3)N3CCOCC3)c2Cl)cc1 (stereo not drawn)	?	-11.5	-2.0	4.6
2	O=C(CSc1nnc(-c2cc3ccccc3cc2O)n1Cc1ccco1)N1CCc2ccccc2C1	11125	-9.1	10.6	-0.4
3	FC(F)(F)c1nc(-c2ccncc2)ncc1-c1nnnn1-c1ccccc1	3771	6.9	-2.0	1.5
4	CCc1cc(=O)oc2cc(C)cc(OC(C)C(=O)NC3CC(C)(C)NC(C)(C)C3)c12 (stereo not drawn)	4968	7.7	-6.5	-0.9
5	Cc1ccc(NC(=O)c2ccccc2OCC(=O)c2ccccc2)cc1	9026	11.2	0.9	-10.3
6	COC(=O)CSc1nnc(-c2cccnc2)o1	2834	-0.5	8.9	6.4
7	CN1CCN(c2nc(-c3ccccc3)nc(-c3ccccc3)c2C#N)CC1	2368	-6.5	-4.9	0.5
8	CCS(=O)(=O)NCC(c1cccnc1)N1CCN(c2ccccc2OC)CC1 (stereo not drawn)	7049	1.5	1.0	19.4
9	O=C(O)CCN1c2cccc3cccc(c23)S1(=O)=O	3022	-0.8	1.1	4.6
10	COc1ccc(C(=O)NCc2ccc(N3CCN(C)CC3)cc2)cc1	3554	11.3	4.2	0.8
11	CCC(=O)N1CCN(c2c(Cl)cccc2[N+](=O)[O-])CC1	3165	1.5	7.2	4.7
12	COc1cc(CNc2ccc(C(=O)O)cc2)cc(Br)c1OCC(=O)NC(C)(C)C	1996	8.4	4.0	6.2

nr	BJeLR lethal	Sa ugtP lethal	PrP 5UTR inh
1	-0.4	2.3	10.9
2	-10.8	-32.0	-9.3
3	-6.2	3.8	-15.5
4	0.9	5.9	-3.7
5	5.6	-12.7	-37.3
6	-2.0	6.2	5.0
7	-1.8	10.2	-30.0
8	12.4	19.1	-24.8
9	-0.7	11.3	-8.9
10	-5.2	16.1	-7.6
11	-3.8	7.0	-2.7
12	7.9	3.6	-10.0

# A portion from the list above, as a working copy:
nr	mol	Autofluor counter	Mtb hypoxia inh	Mtb hypoxia inh growth	Sa RN4220 lethal
6	COC(=O)CSc1nnc(-c2cccnc2)o1	2834	-0.5	8.9	6.4
7	CN1CCN(c2nc(-c3ccccc3)nc(-c3ccccc3)c2C#N)CC1	2368	-6.5	-4.9	0.5
8	CCS(=O)(=O)NCC(c1cccnc1)N1CCN(c2ccccc2OC)CC1 (stereo not drawn)	7049	1.5	1.0	19.4

nr	BJeLR lethal	Sa ugtP lethal	PrP 5UTR inh
6	-2.0	6.2	5.0
7	-1.8	10.2	-30.0
8	12.4	19.1	-24.8

# (cont.)
nr	mol	Autofluor counter	Mtb hypoxia inh	Mtb hypoxia inh growth	Sa RN4220 lethal
13	COc1ccc(C2=NOC(C(=O)NCCCn3ccnc3)C2)cc1 (stereo not drawn)	3152	7.9	6.4	8.0
14	Cc1ccccc1Cc1c(C)nc2nc(SCC(=O)N3CCC4(CC3)OCCO4)nn2c1C	4162	-5.8	5.3	3.7
15	CCOC(=O)C1(CC2CCCCO2)CCN(Cc2nc3ccccc3[nH]2)CC1 (stereo not drawn)	2611	5.9	5.0	2.9
16	COC(=O)c1ccc2[nH]c(C(C)O)c(C(C)O)c2c1 (stereo not drawn)	·	-12.5	0.4	3.8
17	Cc1cc(C)cc(NC(=O)Cn2c(=O)oc3cc(S(=O)(=O)N4CCC(C)CC4)ccc32)c1	5533	2.4	1.0	4.0
18	O=C(CCN1C(=O)/C(=C/c2cccc(Br)c2)SC1=S)Nc1cccnc1	2752	-0.6	-2.3	0.5
19	COc1cccc(CC(NC(C)=O)C(=O)NC2CCN(c3c(Cc4ccccc4)c(C)nc4ncnn34)CC2)c1OC (stereo not drawn)	2486	-6.5	0.1	1.7
20	CCOC(=O)C(=NNc1ccccc1)S(=O)(=O)c1ccccc1	·	14.4	-0.5	6.4
21	CCCN1CCC(=O)N(CCSc2ccc(OC)cc2)CC1	3885	14.4	13.4	2.9
22	COc1ccc(NS(=O)(=O)c2ccc(-c3ccccn3)s2)cc1	5754	3.4	0.2	0.5
23	CC(C)(C)OC(=O)C(Cc1ccccc1)NC(=O)c1nc[nH]c1C(=O)NCc1ccccc1 (stereo not drawn)	·	9.9	10.5	8.1
24	COc1cc(/C=N/NC(=O)c2ccncc2)ccc1OC(=O)c1ccc([N+](=O)[O-])cc1	2451	·	·	·

nr	BJeLR lethal	Sa ugtP lethal	PrP 5UTR inh
13	-2.6	7.7	-12.9
14	-4.6	-3.0	-11.4
15	4.4	6.4	-44.7
16	·	2.3	·
17	6.8	7.9	-6.3
18	4.1	-10.2	-13.2
19	-8.2	0.9	-15.2
20	·	-4.2	·
21	1.4	-2.4	-25.8
22	-0.4	2.6	·
23	·	8.0	·
24	-4.9	·	-7.0

# (next part)
nr	mol	Autofluor counter	Mtb hypoxia inh	Mtb hypoxia inh growth	Sa RN4220 lethal
25	c1ccc(CSc2nnc(-c3ccco3)c(-c3ccco3)n2)cc1	20923*	5.1	5.9	3.2
26	COc1ccc(S(=O)(=O)C(C#N)c2nc3ccccc3nc2N2CCC(C)CC2)cc1 (stereo not drawn)	·	-2.1	12.7	-6.0
27	O=C(Cc1ccc(F)cc1)Nc1ccccc1N1CCCC1	6160	1.1	13.3	-0.7
28	CSc1ccccc1NC(=O)CN(C)CC(=O)NCC(=O)Nc1ccc(F)cc1	3846	15.1	5.1	4.0
29	CCCCOc1ccc(S(=O)(=O)N2CCCCC2)cc1	3598	1.8	0.5	4.3
30	COc1ccc(CN2CCCCCC2)c(C)c1C	15436	5.2	5.0	-0.4
31	Cc1cc(/C=N/NC(=O)c2cccc([N+](=O)[O-])c2)c(C)n1-c1ccccc1	2907	·	·	·
32	O=C(CCc1ccccc1)NCCSc1ccccc1	3703	3.7	0.8	1.7
33	O=C(COc1ccc(S(=O)(=O)N2CCOCC2)cc1Cl)NCc1ccco1	3451	3.8	-2.8	1.8
34	CC[C@]12c3[nH]c4cc(-c5ccco5)ccc4c3CCN1C(=O)[C@@H](CC(=O)NCCCN(C)C)C[C@@H]2C(=O)N1CCN(C(=O)C2CC2)CC1	3785	5.2	4.3	4.2
35	CC(OC(=O)CNC(=O)c1sc2ccccc2c1Cl)C(=O)NC1(C#N)CCCCC1 (stereo not drawn)	4378	3.5	-1.7	7.8
36	COc1cc([N+](=O)[O-])ccc1NC(=O)c1cccc(NC(=O)C(C)C)c1	2209	8.6	14.7	-0.1

nr	BJeLR lethal	Sa ugtP lethal	PrP 5UTR inh
25	17.6	50.0	-3.8
26	-8.5	-14.0	·
27	-3.1	-2.3	-3.6
28	4.6	3.0	-22.7
29	-7.0	-1.9	-30.6
30	-2.1	9.7	-7.8
31	6.4	·	-48.9
32	0.7	7.3	-32.5
33	-1.4	2.7	-12.7
34	·	-1.8	-24.4
35	·	2.8	-12.2
36	-9.6	0.6	-14.2

# (more compounds)
nr	mol	Autofluor counter	Mtb hypoxia inh	Mtb hypoxia inh growth	Sa RN4220 lethal
37	CN(C)/C=C1\NC(=S)N(c2ccccc2)C1=O	4556	1.8	-4.4	6.5
38	CCOC(=O)c1ccc(NC(=S)NNC(=O)COC)cc1	8753	-4.5	-1.2	5.2
39	O=C(O)C(Cc1ccnc2ccccc12)=NO	3790	4.2	7.0	0.1
40	Cc1ccc(Cl)c(OCC(=O)NN2CCN(C)CC2)c1	2448	7.0	8.0	0.4
41	Cc1noc(C)c1CSc1nnc2scc(-c3ccc(Cl)cc3)n12	9762	4.9	5.9	4.9
42	Cc1ccc(CNC(=O)CCC(=O)Nc2nnc(C3CCCCC3)s2)cc1	3376	18.1	12.4	3.1
43	CC(C)OC(=O)CSc1nnc(-c2ccc([N+](=O)[O-])cc2)o1	2599	7.3	-1.4	3.0
44	CC1CCCCC12NC(=O)N(CC(=O)NCc1ccco1)C2=O (stereo not drawn)	3615	-1.6	0.7	-0.6
45	COc1ccccc1NC(=O)CSc1ccc(-c2cccs2)nn1	4006	8.6	8.5	2.8
46	COCCNC(=O)c1onc(CSc2cc(C)ccc2C)c1C(=O)O	3606	8.9	7.7	4.9
47	C=CCc1cccc2cc(C(=O)N(CC)CC)c(=O)oc12	6161	4.4	7.6	0.8
48	COc1ccc(NC(=O)C2CCCN2C(=O)Nc2ccc(OC)cc2)cc1 (stereo not drawn)	5472	-4.7	3.1	0.8

nr	BJeLR lethal	Sa ugtP lethal	PrP 5UTR inh
37	-2.8	-3.2	-23.3
38	0.8	-1.2	-15.0
39	·	-0.3	-19.3
40	-7.3	7.7	-5.5
41	-7.9	-1.7	-26.5
42	-8.2	4.0	-26.8
43	·	6.0	-28.7
44	·	1.6	-32.2
45	-8.6	4.4	-29.3
46	-3.2	2.5	-1.1
47	-4.4	-1.9	7.5
48	-3.8	1.1	-14.5

# Results in sequence from above.
# Nos. 40 to 48 in Sa RN4220 lethal: 0.4, 4.9, 3.1, 3.0, -0.6, 2.8, 4.9, 0.8, 0.8
# Nos. 40 to 48 in PrP 5UTR inh: -5.5, -26.5, -26.8, -28.7, -32.2, -29.3, -1.1, 7.5, -14.5
# Nos. 40 to 48 in Mtb hypoxia inh growth: 8.0, 5.9, 12.4, -1.4, 0.7, 8.5, 7.7, 7.6, 3.1

# Next compounds.
nr	mol	Autofluor counter	Mtb hypoxia inh	Mtb hypoxia inh growth	Sa RN4220 lethal
49	CCC(C)C(C(=O)N1CCN(C(=O)OC(C)(C)C)CC1)n1cc(-c2cn(C(C)C(=O)N3CCN(C(=O)OC(C)(C)C)CC3)nn2)nn1 (stereo not drawn)	·	-9.4	-1.8	-1.1
50	COc1cc(/C=C/C(=O)O)cc(Br)c1O	4377	-0.1	2.6	3.3
51	CCOC(=O)c1cc(CC)sc1NC(=O)C1CC1	9851	14.5	19.4	14.1
52	Cc1ccccc1-n1c(=O)[nH]c(=O)c2c(N)c(C(=O)c3ccc(Cl)cc3)sc21	2098	7.5	2.4	6.1
53	CN(C)S(=O)(=O)c1ccc(C(=O)NCCN=C2NS(=O)(=O)c3ccccc32)cc1	3720	3.4	9.6	2.0
54	CCOc1ccc(-c2nnn(CCC(=O)O)n2)cc1OC	21762*	-3.9	13.9	2.2
55	CN(CC(=O)NCCc1ccc(Cl)cc1)S(=O)(=O)c1ccc2c(c1)c(=O)n(C)c(=O)n2C	5372	-5.0	0.5	7.9
56	CCCC(c1nnnn1CS(=O)(=O)c1ccc(C)cc1)N1CCN(c2ccccc2)CC1 (stereo not drawn)	4697	14.5	10.5	-0.7
57	CC(C)CC(NC(=O)C1CCC(C)CC1)C(=O)Nc1ccccc1F (stereo not drawn)	3558	11.1	4.3	4.4
58	CCN1CCN(C(=O)CCn2c(=O)c3cccn3c3cccnc32)CC1	6049	7.5	1.5	0.0
59	CC(NC(=O)Cn1cnc2c1c(=O)n(C)c(=O)n2C)c1ccccc1 (stereo not drawn)	2361	1.4	15.0	-6.3
60	CCc1ccc(NC(=O)Nc2ccsc2C(=O)OC)cc1	5832	5.5	7.9	-0.8

nr	BJeLR lethal	Sa ugtP lethal	PrP 5UTR inh
49	·	-2.2	·
50	3.7	8.9	-14.9
51	13.6	-4.3	-10.4
52	-0.7	1.2	7.3
53	-10.6	2.3	-15.2
54	4.4	1.2	-24.3
55	-11.3	-3.9	-39.0
56	-7.6	3.1	-23.5
57	5.3	0.9	-12.9
58	0.7	1.1	-18.7
59	-2.5	-10.2	-7.2
60	-2.3	0.9	-53.7

# Additional compounds:
nr	mol	Autofluor counter	Mtb hypoxia inh	Mtb hypoxia inh growth	Sa RN4220 lethal
61	Cc1c(C(=O)NCc2cccnc2)oc2ccc(S(=O)(=O)N3CCCC(C)C3)cc12 (stereo not drawn)	3759	7.2	5.1	3.5
62	CC(C)Cn1c(CCC(N)=O)nnc1SC(C)C(=O)Nc1ccc2c(c1)OCO2 (stereo not drawn)	·	11.4	5.8	2.3
63	O=C(NN=Cc1cc([N+](=O)[O-])ccc1O)C1CC1	·	4.7	7.3	89.5*
64	Cc1csc2c(NCCCN3CCOCC3)ncnc12	4773	-4.3	7.5	0.6
65	O=C1c2ccccc2C(=O)N1CCSc1ncn[nH]1	2711	12.6	8.0	1.2
66	Cc1cc2oc(C(=O)NCCc3ccc(S(N)(=O)=O)cc3)cc(=O)c2cc1C	3691	-1.5	12.8	5.5

nr	BJeLR lethal	Sa ugtP lethal	PrP 5UTR inh
61	-0.9	-4.8	-11.0
62	·	0.3	-15.8
63	·	79.9	·
64	7.8	1.5	-17.8
65	3.0	4.1	-19.3
66	1.8	11.3	-16.9
